Screening data as filed in PubChem.
HPGD inh – inhibitors of human 15-hydroxyprostaglandin dehydrogenase (HPGD). Potency, µM, without a hit: top-dose activity change, negative = inhibition, most hits filed as inhibitors. hit rate 4.3% among 150,000. P15428. purified HPGD, NADH fluorescence kinetic, PGE2 substrate. AID 894; active = well fitted inhibition curve with a large enough effect (not every such curve was filed as active); inconclusive = small, poorly fitted or top-dose-only effect, or another doubt; inactive = no such curve, though single readings can be large or run the other way;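 further: top concentration of the series not given in the record; plate controls included wells without enzyme; inactives centre near -10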
Target sequence (P15428 whole entry, looked up): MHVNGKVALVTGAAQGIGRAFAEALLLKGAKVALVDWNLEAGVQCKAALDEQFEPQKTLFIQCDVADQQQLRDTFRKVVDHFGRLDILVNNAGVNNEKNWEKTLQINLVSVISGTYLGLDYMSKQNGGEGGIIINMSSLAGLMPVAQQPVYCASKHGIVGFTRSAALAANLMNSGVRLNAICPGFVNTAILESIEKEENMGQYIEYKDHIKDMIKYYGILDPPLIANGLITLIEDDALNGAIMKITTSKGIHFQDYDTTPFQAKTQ
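20 nM HPGD preincubated 15 min at room temperature with compound in 50 mM Tris-HCl pH 8, 0.01% Tween 20. Started with 1 mM NAD+ and 30 uM prostaglandin E2; NADH fluorescence (360/450 nm) read 5 times over 30-s intervals, last minus first.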
Active calls of the source: *; ? = inconclusive. On the % scale 0 is the no-effect control and ±100 the full control effect; potency means the concentration at half of the fitted maximal effect. Not all compounds are listed; rates above refer to the full screens.

Molecule	HPGD inh
Cc1ccc(C(=O)CCC(=O)Nc2ccc(Cl)c(S(=O)(=O)Nc3cccc(Cl)c3)c2)cc1	-17%
CCCc1ccc(OCc2nc(-c3ccc(NC(=O)c4ccco4)cc3)no2)cc1	?
O=C(CCCSc1nnc(SCCCC(=O)c2ccc(F)cc2)s1)c1ccc(F)cc1	-4%
CCCCCOC(=O)Nc1ccc(S(=O)(=O)Nc2cccc([N+](=O)[O-])c2)cc1	-21%
Cc1ccc(N/N=C/c2ccc(N3CCOCC3)cc2)cc1C	?
CCCCNc1nc2ccccc2nc1NS(=O)(=O)c1cccs1	-19%
Cn1cc([N+](=O)[O-])c(C(=O)NCc2cc3cc(Cl)ccc3[nH]2)n1	4%
CC1CCc2c(C(=O)Nc3nccs3)csc2C1 (stereo not drawn)	7.1µM*
CC1(OC(=O)c2ccc(Cl)nc2)C(=O)C=c2cc(-c3ccsc3)ncc2=C1OC(=O)C1CCCC1 (stereo not drawn)	-8%
O=C1CCCC(=O)C1=C1SCCS1	-11%

Continued.
Molecule	HPGD inh
COc1ccc(-c2cc(C(=O)N3CCN(c4ccccc4)CC3)no2)cc1OC	-29%
Cc1cc(C(=O)O)ccc1[C@H](N)C(=O)O	-12%
CCN1C(=O)c2n[nH]c(C(=O)OC)c2C1=O	-28%
Cc1ccc(Sc2nc([N+](=O)[O-])nn2C)cc1	-6%
O=C1CCC(=O)N1CNc1ccc(Oc2ccccc2)cc1	-9%
CCOC(=O)Nc1ccc(Oc2ccccc2)cc1	?
COCCOC(=O)c1[nH]c2c(c1C)C(=O)CC(c1ccccc1)C2 (stereo not drawn)	-14%
CCOC(=O)CSc1nnc(Cc2ccccc2)n1-c1cccc(Cl)c1	-8%
O=C(CC12CC3CC(CC(C3)C1)C2)Nc1cccc2ncccc12	-1%
CCn1nnnc1SCC(=O)Nc1ccc(OC)cc1	-9%

More records follow:
Molecule	HPGD inh
NC(=O)Cn1c(=O)n(CCCC(=O)NC2CCN(Cc3ccccc3)CC2)c(=O)c2ccccc21	-3%
COc1ccc(C=O)cc1COc1ccc(Cl)cc1[N+](=O)[O-]	0%
NC(=O)C[C@@H]1NC(=O)c2cc([N+](=O)[O-])cc(F)c2NCCCC[C@@H](C(N)=O)NC(=O)[C@H](CO)NC1=O	-25%
CC(=O)c1c(C)[nH]c(C(=O)OCc2nnc(-c3ccccc3)o2)c1C	-28%
O=C(CSc1nnnn1-c1ccc2c(c1)OCCO2)c1cccc2c1OCCO2	-11%
CCN(CC)CCCNc1nc2ccccc2[nH]1	-2%
CCOC(=O)c1ccc(NC(=O)c2nccnc2C(=O)O)cc1	-20%
CCCCCNC(=O)CCc1ccccc1	?
COc1cc(OC)cc(-c2cc3nc(C)c(CCC(=O)Nc4nc(C)cs4)c(C)n3n2)c1	?
O=C(Nc1ccccc1C(=O)N/N=C/c1ccco1)c1ccccc1	-21%

At a glance, some entries already given:
Molecule	HPGD inh
COc1cc(OC)cc(-c2cc3nc(C)c(CCC(=O)Nc4nc(C)cs4)c(C)n3n2)c1	?
O=C(Nc1ccccc1C(=O)N/N=C/c1ccco1)c1ccccc1	-21%

Continued.
Molecule	HPGD inh
O=C(c1ccco1)N1CCN(C(=O)c2cc3c(s2)-c2ccccc2OC3)CC1	?
Cc1cccc(N2CCN(C(=O)Cn3c(=O)[nH]c4ccsc4c3=O)CC2C)c1 (stereo not drawn)	-5%
COc1ccc(S(=O)(=O)Nc2cc(C)ccn2)cc1	-22%
Cc1ccc(O)c(C(=O)c2cc(C#N)c(=O)n(CC3CCCO3)c2)c1 (stereo not drawn)	-22%
CC(C)NC(=O)C1CC=CCC1C(=O)O (stereo not drawn)	-3%
S=c1[nH]nc(-c2ccccc2)n1CC1CCCO1 (stereo not drawn)	-9%
COC(=O)c1cc(OC)c(OC)cc1NC(=O)C(C)c1ccc([N+](=O)[O-])cc1 (stereo not drawn)	-4%
CCCc1cc2c(=O)n(NC(=O)c3nn(C)cc3[N+](=O)[O-])c(C)nc2s1	-5%
COc1ccc(OCCn2nnc(-c3ccc(Cl)cc3)n2)cc1	-14%
CN(C)c1nc(SCCOC(=O)c2ccccc2)nc(N(C)C)n1	-13%

Some of the entries so far, with the structure last.
HPGD inh,molecule
-9%,CCn1nnnc1SCC(=O)Nc1ccc(OC)cc1
-3%,NC(=O)Cn1c(=O)n(CCCC(=O)NC2CCN(Cc3ccccc3)CC2)c(=O)c2ccccc21
0%,COc1ccc(C=O)cc1COc1ccc(Cl)cc1[N+](=O)[O-]
-25%,NC(=O)C[C@@H]1NC(=O)c2cc([N+](=O)[O-])cc(F)c2NCCCC[C@@H](C(N)=O)NC(=O)[C@H](CO)NC1=O
-28%,CC(=O)c1c(C)[nH]c(C(=O)OCc2nnc(-c3ccccc3)o2)c1C
-11%,O=C(CSc1nnnn1-c1ccc2c(c1)OCCO2)c1cccc2c1OCCO2
-2%,CCN(CC)CCCNc1nc2ccccc2[nH]1
-20%,CCOC(=O)c1ccc(NC(=O)c2nccnc2C(=O)O)cc1
?,CCCCCNC(=O)CCc1ccccc1
?,COc1cc(OC)cc(-c2cc3nc(C)c(CCC(=O)Nc4nc(C)cs4)c(C)n3n2)c1
-21%,O=C(Nc1ccccc1C(=O)N/N=C/c1ccco1)c1ccccc1
?,O=C(c1ccco1)N1CCN(C(=O)c2cc3c(s2)-c2ccccc2OC3)CC1
-5%,Cc1cccc(N2CCN(C(=O)Cn3c(=O)[nH]c4ccsc4c3=O)CC2C)c1 (stereo not drawn)
-22%,COc1ccc(S(=O)(=O)Nc2cc(C)ccn2)cc1

(further entries)
Molecule	HPGD inh
O=C(COC(=O)c1ccccc1NC(=O)c1ccco1)NC1CCCCC1	?
Cc1ccc(S(=O)(=O)c2nc(S(C)(=O)=O)sc2N(C)C)cc1	-1%
Cc1ccc(C)c(NC(=O)c2ccc(S(=O)(=O)C(F)F)cc2)c1	-8%
O=S(=O)(Nc1ccc2c(c1)nc1n2CCOC1)c1ccc(Cl)cc1	-1%
COc1ccc(NC(=O)C(C)NS(=O)(=O)c2ccccc2)cc1Cl (stereo not drawn)	-3%
COC(=O)C1=C(C)N(c2cccc3ccccc23)C(=O)C1	-17%
Brc1ccccc1-c1nnc(CSc2nncn2-c2ccccc2)o1	-29%
C#CCN(C#N)c1nc(NCC)nc(NC(C)C)n1	-9%
CC1CCc2sc3ncnc(N4CCOCC4)c3c2C1 (stereo not drawn)	-4%
O=C(O)CCN1CCc2ccccc21	-5%

The list goes on.
Molecule	HPGD inh
CC(C)[C@H](NS(=O)(=O)c1ccc2c(c1)OCCO2)C(=O)OCC(=O)Nc1ccccc1Cl	-5%
CC(C)c1nnc(NC(=O)Cn2nc(-c3ccc4c(c3)OCCO4)ccc2=O)s1	?
CC(C)OC(=O)CSc1nnc(-c2ccccc2)n1N	-2%
CC1CCCC(C)N1C(=O)COC(=O)c1ccc[nH]c1=O (stereo not drawn)	-10%
COc1ccc(NC(=O)N2CCc3nc(-c4ccccc4)c4c(c3C2)CO[C@@H](C)C4)cc1	-5%
CC(=O)c1cccc(S(=O)(=O)NCC(c2ccco2)N2CCCCC2)c1 (stereo not drawn)	-17%
CCCC(=O)O[C@]1(C(=O)CO)CC[C@H]2[C@@H]3CCC4=CC(=O)CC[C@]4(C)[C@H]3[C@@H](O)C[C@@]21C	-1%
Cc1cccc(C(=O)N2CCC(=O)N(C(COCc3ccc(Cl)cc3)Cc3ccccc3)CC2)c1 (stereo not drawn)	-6%
COc1ccccc1NC1=NC(C)(C)N=C(N)N1	-6%
CCOc1ccc(-c2nnc(-c3ccc(OC)cc3)o2)cc1	-11%

(list continues)
Molecule	HPGD inh
COc1ccc(C(c2sc3nc(C)nn3c2O)N2CCC3(CC2)OCCO3)cc1 (stereo not drawn)	-7%
CCOc1ccc(CC(=NCCc2ccccc2)C2=C(O)CC(C)(C)CC2=O)cc1OCC	-3%
CCCN(CCC)c1nc(NC2CCN(C(=O)OCC)CC2)nc(OC)n1	-14%
Cn1c(=S)c2[nH]c(SCCN3CCCC3)nc2n(C)c1=O	-12%
Cc1cc(C)cc(OCC(=O)N2N=C(C(F)(F)F)CC2(O)C(C)(C)C)c1 (stereo not drawn)	-11%
COc1cc(/C=C(\C#N)C(=O)Nc2ccc(SC(F)F)cc2)cc(OC)c1OC	-7%
COCCNC(=S)c1ccc(OC)cc1	?
CCC(C)NC(=O)[C@H](CSCc1ccccc1)N1Cc2ccccc2C1=O (stereo partly drawn)	-7%
CN(C)CCCN1C(=O)c2cccc3c([N+](=O)[O-])ccc(c23)C1=O	-25%
Cc1cccc2sc(NC(=O)CSc3nc4ccccc4o3)nc12	-15%

(more compounds)
Molecule	HPGD inh
COC(=O)c1cccc(OCC(O)Cn2ccnc2)c1 (stereo not drawn)	-14%
O=C(c1csc2c1CCCC2)N1CCN(c2ccc(F)cc2)CC1	-6%
CCN(C1CCCCC1)S(=O)(=O)c1ccc(S(=O)(=O)N2CCN(CCC#N)CC2)cc1	-4%
COc1ccc(S(=O)(=O)N2CCOCC2)cc1NC(=O)COc1ncnc2ccccc12	-2%
COC(=O)N1CC(=O)N(OC)C1c1ccc(Cl)cc1Cl (stereo not drawn)	-5%
CCC(C)OC(=O)C1=C(C)NC(=O)NC1c1ccc(F)cc1 (stereo not drawn)	-17%
Cc1ccc(NC(=O)CN(Cc2ccccc2)S(C)(=O)=O)cc1C	-7%
CC(NC(=O)CN(C1CCCCC1)S(C)(=O)=O)c1ccccc1 (stereo not drawn)	2%
CC1OC(OCC2OC(Oc3c(-c4ccc(O)c(O)c4)oc4cc(O)cc(O)c4c3=O)C(O)C(O)C2O)C(O)C(O)C1O (stereo not drawn)	-6%
Clc1ccc(-c2nnc(COc3ncnc4sccc34)o2)cc1	-15%

Next records:
Molecule	HPGD inh
N#CCCn1c(=O)cnc2cnc(N3CCNCC3)nc21	?
O=C(/C=C/c1cn(CC(O)CN2CCCCCC2)c2ccccc12)c1cccs1 (stereo not drawn)	-6%
Cc1ccc(-c2nnc(-c3ccc(NC(=O)c4ccco4)cc3)o2)cc1	-25%
CC(C)(C)C(=O)NC(=C(Cl)Cl)P(=O)(O)O	-6%
COc1cc2c(cc1OC)[C@@H]1Cc3cc4c(cc3[C@H](C2)N1C)OCO4	5%
Clc1ccc(-n2ncc3c(NCCN4CCOCC4)ncnc32)cc1	?
Cc1oc(C)c(C(=O)Nc2ccc(CC(=O)O)cc2)c1C(=O)Nc1ccc(CC(=O)O)cc1	3%
Cc1ccc(C(=O)C(OC(=O)COc2ccccc2C)c2ccccc2)cc1 (stereo not drawn)	-16%
CC(Sc1nnc(-c2cc3ccccc3o2)n1-c1ccccc1)C(=O)O (stereo not drawn)	-6%
CC1=NN(C(=S)Nc2ccccc2)C(c2ccccc2)C1 (stereo not drawn)	-3%

Following part:
Molecule	HPGD inh
CCCCn1c(SCC(=O)Nc2nc(C)cs2)nnc1-c1cccnc1	-14%
CC1CCc2c(sc3nc(CSc4n[nH]c(N)n4)[nH]c(=O)c23)C1 (stereo not drawn)	-16%
O=C(Nc1nnc(-c2ccccc2)o1)c1ccc(Cl)cc1	-16%
CN(C)/C=C(/C(=O)c1ccc(Cl)cc1)S(=O)(=O)c1ccc(Cl)cc1	-18%
O=C(CSc1nc2ccccc2c(=O)n1-c1ccc(OC(F)F)cc1)NCc1cccs1	-28%
CCN1CCN(CC(O)COc2ccc(C)c(C)c2)CC1 (stereo not drawn)	-3%
COC(=O)c1ccccc1NC(=O)c1ccc(-c2cccc(Cl)c2)o1	?
CCOC(=O)C1CCN(C(C(=O)NC2CCCC2)c2ccc(C)cc2)CC1 (stereo not drawn)	-12%
CCc1cc2c(Sc3nc4ccccc4s3)ncnc2s1	25µM*
COc1ccc(OC)c(CCNC(=O)Cn2sc3nc(C)cc(C)c3c2=O)c1	1.4µM*

Next part
Molecule	HPGD inh
Cc1ncc(CO)c(/C=N/NC(=S)Nc2ccc(F)cc2)c1O	?
O=[N+]([O-])c1cccc2c[nH]nc12	32µM*
O=S1(=O)CCN2C=Nc3sc4c(c3C2=N1)CCCC4	-24%
N[C@@H](Cc1ccc(O)c(O)c1)C(=O)O	-17%
O=C(O)CC(O)C(=O)O (stereo not drawn)	-18%
CC1CCc2nc(NC(=O)CN3CCN(Cc4ccc5c(c4)OCO5)CC3)sc2C1 (stereo not drawn)	-18%
COc1cc(C2CC(=O)N(CC(=O)NCc3ccco3)c3ccccc3S2)cc(OC)c1OC (stereo not drawn)	4%
O=C(Nc1nccs1)c1cc2c(s1)CCCCC2	?
CCCCN(CC)C(=O)c1ccc(Cl)c(Cl)c1	-25%
O=C1CC(NCc2ccco2)C(=O)N1CCc1ccccc1 (stereo not drawn)	-17%

The results go on:
Molecule	HPGD inh
Cn1c(=O)c(=O)n(C)c2cc(S(=O)(=O)N3CCN(c4cccc(C(F)(F)F)c4)CC3)ccc21	-10%
CN(C)S(=O)(=O)c1ccc(N2CCCC2=O)c([N+](=O)[O-])c1	-7%
COCCNC(=O)c1cc(-c2ccc3c(c2)OCO3)on1	-27%
Cc1ccc(C(=O)NC2CCSC2=O)cc1 (stereo not drawn)	-7%
CCOC(=O)c1cnn(-c2nc(-c3ccc(C)cc3)cs2)c1C(F)(F)F	?
c1c2c(cc3sc(N4CCCCC4)nc13)OCCO2	25µM*
N#Cc1ccc(-c2csc(NNC(=O)c3ccc(Br)cc3)n2)cc1	-21%
Cc1cc(C(=O)COc2ccccc2Cl)c(C)n1-c1ccc2c(c1)OCO2	?
CC(C)(C)NC(=O)c1c(F)c(F)c(F)c(F)c1F	-8%
